AmpC inh no det – blocks E. coli AmpC beta-lactamase in absence of detergent; P00811; AmpC nitrocefin hydrolysis, absorbance 480 nm, no detergent; potencies from a single point are estimates; Potency, µM (highest dose often 28.7 µM), without a hit: at the top dose activity change, negative = inhibition; 1.8% of 71,000 active; AID 585; active = falling curve, for most hits resting on a single point; inconclusive = weak or doubtful change; inactive = flat or rising curve; also: % of control where 0% means no effect; about half of the hits show no inhibition at the top dose; a quarter of the inactives give rising signals
Target sequence (P00811 whole entry, looked up): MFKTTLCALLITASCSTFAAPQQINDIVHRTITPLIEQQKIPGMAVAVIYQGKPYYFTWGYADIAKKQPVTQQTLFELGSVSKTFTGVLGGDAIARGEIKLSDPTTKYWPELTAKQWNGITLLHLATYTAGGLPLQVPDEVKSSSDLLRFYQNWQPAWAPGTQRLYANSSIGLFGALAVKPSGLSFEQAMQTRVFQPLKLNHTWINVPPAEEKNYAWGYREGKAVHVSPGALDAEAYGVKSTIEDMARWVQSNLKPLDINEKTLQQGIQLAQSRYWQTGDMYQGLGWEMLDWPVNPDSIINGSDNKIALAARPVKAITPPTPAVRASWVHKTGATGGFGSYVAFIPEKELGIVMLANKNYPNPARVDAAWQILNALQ
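AmpC, 20 mM phosphate pH 7.0; 15 min cpd preinc, RT; start with nitrocefin (800 uM stock); A480 kinetic read, 20 s intervals, 4 min. No-enzyme wells = negative control.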
* marks the source's active call; other numbers are inactive results; [ ] = dose if it differs, or a comment. Potency is read from the fitted curve at half-maximal effect. These rows are one share of the data; rates above refer to the full screens.

SMILES	AmpC inh no det
Cc1nc2cc(F)ccc2n1C1CCN(Cc2nnnn2CCc2ccccc2)CC1	132%
CCCN(CCC)c1nc2ccccc2nc1C(C#N)C(=O)OCCOC (centres undefined)	106%
COc1ccc(Cn2nnnc2C(c2ccccc2)N2CCN(C3CCCC3)CC2)cc1 (centres undefined)	35%
CC1CC(C)CN(c2ncc3c(n2)CC(c2ccccc2Cl)CC3=O)C1 (centres undefined)	11%
CCCCc1nc(SCC(=O)Nc2ccc(S(N)(=O)=O)cc2)n[nH]1	-7%
CC(C)N1C(=O)C2C(C(=O)NCc3ccccc3)C3C=CC2(O3)C1C(=O)NC(C)(C)C (centres undefined)	8%
CN(C)c1nc2n(c(=O)n1)CCO2	-6%
C[n+]1ccccc1/C=N\O	-3%[12.8 µM]
CCOCCCN(C(=O)Cn1nnc2ccccc21)C(C(=O)NCc1ccco1)c1ccncc1 (centres undefined)	52%
Cc1nnc2sc(-c3ccc(NC(=O)CSc4ccc(Cl)cc4)cc3)nn12	36%
COc1cccc(NS(=O)(=O)c2ccc(S(=O)(=O)N3CCOCC3)cc2)c1	10%
O=C(C1CCN(S(=O)(=O)c2cccc3nsnc23)CC1)N1CCCc2ccccc21	54%
C/C(Cl)=C/Cn1c(NCCCn2ccnc2)nc2c1c(=O)[nH]c(=O)n2C	-5%
O=C(NCc1cccnc1)c1cccc(F)c1	2%
N#Cc1c(-c2ccco2)cc(-c2ccccn2)nc1N	-9%
Cc1ccc(-c2csc3nnc(SCc4csc(C)n4)n23)cc1	28%
CC(=O)Nc1nc(C)nc(-c2ccccc2OC(C)=O)n1	6%
COc1ccccc1NC(=O)CN1CCN(CC(=O)Nc2ccc3c(c2)OCO3)CC1	82%
CN(CC(=O)NC1CCCCC1)S(=O)(=O)c1cccc2cccnc12	28%
CCOCCCn1c(=N)c(C(N)=S)cc2c(=O)n3cccc(C)c3nc21	-2%
C=CCSc1nnc(-c2cccnc2)o1	0%
Cc1cccc(OCC(O)Cn2c(=N)n(CCN3CCCCC3)c3ccccc32)c1 (centres undefined)	16%
O=C1CC(c2cccs2)CC2=C1C(c1ccccc1)n1ncnc1N2 (centres undefined)	-3%
COc1ccc(CC(=O)OCc2cc3ccc(C)cc3[nH]c2=O)cc1	-1%
COc1ccc(-c2cc(C(=O)NCc3ccc(Cl)cc3)no2)cc1OC	2%
O=C(CN1CCN(c2ccccn2)CC1)N1c2ccccc2Sc2ccc(C(F)(F)F)cc21	66%
CCOC(=O)Cn1c(=O)c2c(nc3n2CCS3)n(C)c1=O	15%
O=S1(=O)CCN2C(Cc3ccc(SC(F)F)cc3)=CSC2=N1	-16%
CC(=O)c1c(Nc2ccc3c(c2)OCCO3)oc(C)cc1=O	24%
CC(=Nc1ccc2c(c1)nc(CO)n2C)C1=C(O)CC(C)(C)CC1=O	24%
CCOc1ccc(NC(=O)C2CC(=O)N(C)C(=Nc3ccc4c(c3)OCO4)S2)cc1 (centres undefined)	53%
Cc1ccc(SCc2cc(=O)n3[nH]c(C)nc3n2)cc1	-3%
c1ccc(CN2CC[C@@H](CNc3ncnc4ccccc34)C2)cc1	-7%[5.75 µM]
CC(=O)OC(C)=O	5%
CSc1cnn(-c2ccccc2)c(=O)c1SC	-8%
Cc1ccc(OCC(=O)n2nc(C)cc2C)c(Br)c1	4%
CC(=O)NCCn1c(SCC(=O)c2ccccc2)nc2ccccc2c1=O	82%
CC(=O)NCCNc1ncnc2ccc(-c3ccccc3C(F)(F)F)cc12	85%
CCOC(=O)c1[nH]cnc1C(=O)Nc1ccccn1	2%
Cn1c(=O)c2c(nc(SCc3cccnc3)n2Cc2ccccc2)n(C)c1=O	84%
COc1ccc(C(=O)Cn2nnc(-c3ccccc3NC(=O)C3CC3)n2)cc1	20%
CCOc1ccccc1NC(=O)c1ccccc1N(C)S(C)(=O)=O	12%
COc1cc(NC(=O)c2ccccc2)c(OC)cc1NC(C)=O	5%
OC(COc1ccc2c(c1)CCC2)Cn1cnc2ccccc21 (centres undefined)	60%
O=C(CCS(=O)(=O)c1ccc(Br)cc1)NCc1cccs1	13%
O=C(O)CCCC(=O)Nc1ccc(C(=O)N2CCCCC2)cc1	10%
CC(C)C[C@@H](CC(=O)N[C@@H](CCC(=O)O)CC(=O)O)NC(=O)[C@@H]1CNCC[C@H]1NC(=O)C[C@@H](NC(=O)C[C@H](Cc1ccccc1)NC(=O)[C@@H]1CNCC[C@H]1N)C(C)C	46%
Cc1c(C(=O)OCc2ccccc2)[nH]c2c1C(=O)CC(c1ccco1)C2 (centres undefined)	13µM*[single pt active]
CC1CCc2c(sc3nc(SCC(=O)NCc4ccco4)nc(N)c23)C1 (centres undefined)	47%
COCC(=O)N1CCC2(CCCN(c3ccccn3)C2)CC1	10%
(list continues)
SMILES	AmpC inh no det
COc1ccc(C(OCCN2CCC[C@@H](C(=O)O)C2)(c2ccc(OC)cc2)c2ccc(OC)cc2)cc1	147%
COCCCNC(CC(=O)Nc1ccc(N(C)C)cc1)C(=O)O (centres undefined)	5%
Cn1c(=O)[nH]c(=O)c2c1nc(SCC(=O)Nc1ccccc1)n2Cc1ccccc1	26%
Cn1c(=O)c2[nH]cnc2n(C)c1=O	8%
CCOC(=O)C1CCCN(C2CC(=O)N(c3ccc(C)c(C)c3)C2=O)C1 (centres undefined)	33%
Cc1ccnc(-n2sc3ccccc3c2=O)n1	-10%
CCOC(=O)C1=C(C)NC(=O)NC1c1ccc(OC(C)C(=O)O)c(OC)c1 (centres undefined)	-7%
CCN1C(=O)C(C)S/C1=N\S(=O)(=O)c1ccc(Cl)s1 (centres undefined)	13%
COC(=O)[C@@]1(Cc2ccc(OC)cc2)[C@H]2c3cc(C(=O)N4CCCC4)n(CCSCCO)c3C[C@H]2CN1C(=O)c1ccccc1	153%
Cc1cccc(NC(=O)CSc2nnc(-c3ccccc3C)o2)c1	-10%

24 neighbouring compounds already listed, for reference:
SMILES	AmpC inh no det
CC(=O)NCCn1c(SCC(=O)c2ccccc2)nc2ccccc2c1=O	82%
CC(=O)NCCNc1ncnc2ccc(-c3ccccc3C(F)(F)F)cc12	85%
CCOC(=O)c1[nH]cnc1C(=O)Nc1ccccn1	2%
Cn1c(=O)c2c(nc(SCc3cccnc3)n2Cc2ccccc2)n(C)c1=O	84%
COc1ccc(C(=O)Cn2nnc(-c3ccccc3NC(=O)C3CC3)n2)cc1	20%
CCOc1ccccc1NC(=O)c1ccccc1N(C)S(C)(=O)=O	12%
COc1cc(NC(=O)c2ccccc2)c(OC)cc1NC(C)=O	5%
OC(COc1ccc2c(c1)CCC2)Cn1cnc2ccccc21 (centres undefined)	60%
O=C(CCS(=O)(=O)c1ccc(Br)cc1)NCc1cccs1	13%
O=C(O)CCCC(=O)Nc1ccc(C(=O)N2CCCCC2)cc1	10%
CC(C)C[C@@H](CC(=O)N[C@@H](CCC(=O)O)CC(=O)O)NC(=O)[C@@H]1CNCC[C@H]1NC(=O)C[C@@H](NC(=O)C[C@H](Cc1ccccc1)NC(=O)[C@@H]1CNCC[C@H]1N)C(C)C	46%
Cc1c(C(=O)OCc2ccccc2)[nH]c2c1C(=O)CC(c1ccco1)C2 (centres undefined)	13µM*[single pt active]
CC1CCc2c(sc3nc(SCC(=O)NCc4ccco4)nc(N)c23)C1 (centres undefined)	47%
COCC(=O)N1CCC2(CCCN(c3ccccn3)C2)CC1	10%
COc1ccc(C(OCCN2CCC[C@@H](C(=O)O)C2)(c2ccc(OC)cc2)c2ccc(OC)cc2)cc1	147%
COCCCNC(CC(=O)Nc1ccc(N(C)C)cc1)C(=O)O (centres undefined)	5%
Cn1c(=O)[nH]c(=O)c2c1nc(SCC(=O)Nc1ccccc1)n2Cc1ccccc1	26%
Cn1c(=O)c2[nH]cnc2n(C)c1=O	8%
CCOC(=O)C1CCCN(C2CC(=O)N(c3ccc(C)c(C)c3)C2=O)C1 (centres undefined)	33%
Cc1ccnc(-n2sc3ccccc3c2=O)n1	-10%
CCOC(=O)C1=C(C)NC(=O)NC1c1ccc(OC(C)C(=O)O)c(OC)c1 (centres undefined)	-7%
CCN1C(=O)C(C)S/C1=N\S(=O)(=O)c1ccc(Cl)s1 (centres undefined)	13%
COC(=O)[C@@]1(Cc2ccc(OC)cc2)[C@H]2c3cc(C(=O)N4CCCC4)n(CCSCCO)c3C[C@H]2CN1C(=O)c1ccccc1	153%
Cc1cccc(NC(=O)CSc2nnc(-c3ccccc3C)o2)c1	-10%

(continued)
SMILES	AmpC inh no det
Cn1c(=O)c2c(ncn2CCCNC2=CC(C)(C)CC(=O)C2)n(C)c1=O	-7%
OC[C@@H](O)[C@@H](O)[C@@H](O)[C@@H](O)c1nc2ccc(Cl)cc2[nH]1	7%[5.75 µM]
CCCn1c(C)c(C(=O)c2ccc3ccccc3c2)c2ccccc21	19%
COc1ccc(-c2cc(=O)[nH]c(NCc3ccccc3)n2)cc1	-5%
CCCCn1ccc(=O)c2c(C(F)(F)F)nccc21	6%
CN(C)c1ccc(C2N([C@H](C#N)c3ccc(N(C)C)cc3)CCCN2[C@@H](C#N)c2ccc(N(C)C)cc2)cc1 (some centres undefined)	2%[5.75 µM]
CCOCCOc1nc2c(c(=O)n(C)c(=O)n2C)n1CCc1ccccc1	69%
CCC(=O)N1c2ccccc2NC2=C(C(=O)CCC2)C1c1ccc(N(C)C)cc1 (centres undefined)	18%
COCCNC(=O)c1nn(-c2cc(OC)cc(OC)c2)c(=O)c2ccccc12	16%
CC(C)n1c(=NC(=O)c2ccco2)c(C#N)cc2c(=O)n3ccccc3cc21	27%
C=CCn1c(SCC(=O)NC(=O)NCc2ccco2)nc2sc(CC)cc2c1=O	-8%
CCCNC(=O)C1CN(S(=O)(=O)c2ccccc2)CCN1S(=O)(=O)c1ccccc1 (centres undefined)	9%
O=C(O)c1cc2cc(Cl)ccc2oc1=O	-20%
COc1ncc2nc(CCc3ccccc3)c(=O)n(Cc3cccs3)c2n1	29%
O=C(C1CCCO1)N1CCN(S(=O)(=O)c2cccc3nsnc23)CC1 (centres undefined)	12%
COc1ccc(S(=O)(=O)Nc2nnc(C(C)(C)C)s2)cc1	-9%
CCc1ccc(-c2nc(CSCC(=O)NCCCN3CCCC3=O)c(C)o2)cc1	107%
COc1cccc(Cn2c(=O)c(CCc3ccccc3)nc3cncnc32)c1	23%
COc1ccc(N(CC(=O)NC2CCCC2)C(=O)c2ccc(N3CCCCC3)nc2)cc1	-14%
CC1(C)CC(=O)C2=C(C1)NCN(Cc1ccc3c(c1)OCO3)C2	10%
Cc1sc2ncnc(NCc3ccco3)c2c1C	-3%
CC(=O)NCCc1c(Cc2ccccc2)[nH]c2ccccc12	47%
COc1ccc(OC)c(C2C3=C(N=C4SCC(=O)N42)c2ccccc2CC3)c1 (centres undefined)	21%
c1cc(N2CCCC3(CCNCC3)C2)ccn1	1%
CCOc1nc(NCCC2=CCCCC2)nc(N2CCOCC2)n1	25%
CC/C(C)=N/O	-3%
O=C(O)C1C2C=CC(C2)C1C(=O)OCC1CCCO1 (centres undefined)	-4%
CCOC(=O)C1(Cc2ccc(O)cc2)NC(c2ccccc2F)C2C(=O)N(C)C(=O)C21 (centres undefined)	4%
CS(=O)(=O)c1ncc(Cl)c(C(=O)Nc2ccc(N3CCOCC3)cc2)n1	-10%
Cc1ccc(NC(=O)CSc2nccc(=O)[nH]2)c(S(=O)(=O)N2CCOCC2)c1	-3%
O=C(Oc1ccc(-c2cn3c(n2)SCC3)cc1)c1ccccc1	10%
CC1=C(C(N)=O)C(c2ccc(Cl)cc2)NC(=O)N1 (centres undefined)	-8%
C=CCn1nnnc1SCC(=O)Nc1ccccc1C(=O)OC	4%
O=C(NCc1cccs1)C1CCN(S(=O)(=O)c2ccc3c(c2)OCCO3)CC1	-11%
c1coc(CNc2nc(N3CCCCC3)nc3ccccc23)c1	2%
CN(C)CCNc1nc2c(c(=O)[nH]c(=O)n2C)n1CC(O)COc1ccc(Cl)cc1Cl (centres undefined)	26%
COCCCNC(=O)c1ccc(Cn2c(=O)[nH]c3ccccc3c2=O)cc1	4µM*[single pt active]
CC1=C(C(=O)OC(C)C)C(c2cccnc2)n2ncnc2N1 (centres undefined)	4µM*[single pt active]
CC(=O)N1[C@H](Cc2ccccc2)C=C[C@]1(C)C(=O)NCc1cc(F)cc(C(F)(F)F)c1	119%
COc1ccc2nccc(C(=O)O)c2c1	-3%[12.8 µM]
Cn1c(C(=O)N2CCN(c3ncccn3)CC2)cc2c(=O)n(C)c3ccccc3c21	27%
N#Cc1nc(-c2ccc(Cl)cc2)oc1NCc1ccco1	-12%
c1ccc(CSc2nnc(-c3ccco3)n2Cc2ccccc2)cc1	30%
O=C(c1ccccc1-c1ccccc1)N1CCOCC1	15%
Cc1nc(N2CCN(C)CC2)c2c(C)c(C(=O)Nc3ccc(F)cc3)sc2n1	58%
Cc1ccc(NC(=O)CC2NCCNC2=O)cc1 (centres undefined)	2%
CCc1ccc2c(c1)c1nc(C)sc1n2CC	-7%
CCn1c(=O)c(=O)[nH]c2cc(C(=O)N3CCN(c4ccccc4F)CC3)ccc21	0%
O=C(C1CCN(S(=O)(=O)c2ccc3c(c2)OCCO3)CC1)N1CCc2ccccc21	6%
O=C(CSc1nnc(CNC(=O)c2ccccc2F)o1)NCC1CCCO1 (centres undefined)	-5%
(continued)
SMILES	AmpC inh no det
Cc1cc(=O)[nH]c(SCC(=O)N2CCC(C(N)=O)CC2)n1	-18%
OCCOc1ccc(C2=NCCO2)cc1	2%
Cc1onc(-c2ccccc2Cl)c1C(=O)Nc1sc2c(c1C#N)CCC2	-13%
CC1(c2ccc3noc(-c4ccccc4)c3c2)OCCO1	17%
O=C(Oc1ccc(OC(=O)c2ccncc2)cc1)c1ccncc1	-11%
COc1ncc2nc(-c3cccs3)c(=O)n(C)c2n1	8%
Cc1ccc(-c2c3c(=O)n(C)c(=O)n(C)c3c3c(C)cc(C)nn23)cc1	25%
Cc1c(NC(=O)c2c(F)c(F)c(F)c(F)c2F)c(=O)n(-c2ccccc2)n1C	0%
CSc1ccccc1C(=O)Nc1cccc(N(C)S(C)(=O)=O)c1	-3%
COC(=O)[C@@H]1[C@@H]2C[C@H]3c4[nH]c5ccccc5c4CCN3C[C@@H]2CC[C@@H]1O	5%[5.75 µM]
COc1ccccc1CN1CCN(C(CC(C)C)c2nnnn2Cc2cccs2)CC1 (centres undefined)	71%

Source: PubChem
